hNpr1 antagonist: antagonists of human natriuretic peptide receptor Npr1. P16066. HEK293 hNpr1 GloSensor cGMP, ANP-stimulated luminescence. Potency, µM (doses to about 46.3 µM), without a hit: at the top dose activity change, negative = inhibition, hits mostly inhibitors. 1.6% of 76,000 active. AID 1347048; active = well fitted inhibition curve with a large enough effect; inconclusive = small, poorly fitted or top-dose-only effect; inactive = no such curve, though single readings can be large or run the other way;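 also: nearly all actives have a fitted effect of over 60% in size; nearly all hits also lower the signal before the agonist is added; a reference antagonist and vehicle were the controls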
Target sequence (P16066 whole entry, looked up): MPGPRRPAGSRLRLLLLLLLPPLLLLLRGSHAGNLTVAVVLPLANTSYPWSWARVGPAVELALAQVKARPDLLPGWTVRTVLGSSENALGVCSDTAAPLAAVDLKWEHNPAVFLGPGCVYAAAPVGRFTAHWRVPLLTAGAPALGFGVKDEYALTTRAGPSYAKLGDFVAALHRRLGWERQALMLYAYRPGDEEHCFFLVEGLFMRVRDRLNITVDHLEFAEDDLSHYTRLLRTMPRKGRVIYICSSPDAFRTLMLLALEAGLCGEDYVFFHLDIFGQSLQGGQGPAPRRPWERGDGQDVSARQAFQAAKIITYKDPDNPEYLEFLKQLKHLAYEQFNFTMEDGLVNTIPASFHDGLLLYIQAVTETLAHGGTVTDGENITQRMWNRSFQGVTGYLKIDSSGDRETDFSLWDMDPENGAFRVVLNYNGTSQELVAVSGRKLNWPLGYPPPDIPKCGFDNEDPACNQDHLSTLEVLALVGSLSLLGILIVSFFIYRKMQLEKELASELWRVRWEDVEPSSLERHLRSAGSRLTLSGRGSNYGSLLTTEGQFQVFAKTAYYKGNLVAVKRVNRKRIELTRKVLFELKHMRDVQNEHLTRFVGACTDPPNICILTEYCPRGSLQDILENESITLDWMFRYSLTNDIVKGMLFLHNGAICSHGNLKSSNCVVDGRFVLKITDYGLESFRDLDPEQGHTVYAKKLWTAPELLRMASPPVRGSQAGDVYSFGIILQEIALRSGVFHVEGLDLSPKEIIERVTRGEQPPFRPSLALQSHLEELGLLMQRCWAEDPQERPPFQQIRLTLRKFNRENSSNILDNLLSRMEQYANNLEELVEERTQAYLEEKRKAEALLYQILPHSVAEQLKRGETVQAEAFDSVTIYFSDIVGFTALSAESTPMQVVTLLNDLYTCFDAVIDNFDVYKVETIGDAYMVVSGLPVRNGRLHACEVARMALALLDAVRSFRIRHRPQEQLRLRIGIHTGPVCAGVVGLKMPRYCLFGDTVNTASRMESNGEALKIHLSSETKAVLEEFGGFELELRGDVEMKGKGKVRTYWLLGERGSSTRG
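Compound pre-incubated 30 min at room temperature on GloSensor-loaded HEK293 cells stably carrying hNpr1 and the pGS-40F cGMP biosensor. Stimulation uses hNppA at 0.1 nM final; luminescence is taken at baseline and 20 min post-agonist.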
Active calls of the source: *; ? = inconclusive; [ ] = remark or other dose. % is scaled to controls: 0 for no effect and ±100 for the full control effect; potency is read from the fitted curve at half-maximal effect.

hNpr1 antagonist | mol
3% | COc1cccc(CNC(=O)C(C)(C)C2CCOCC2)c1OC
-6% | O=C(NC1CCCCC1)N1C[C@@H]2C[C@H](C1)c1c(NS(=O)(=O)c3ccccc3)ccc(=O)n1C2
5% | CCN(CC)c1ccc(C(=O)NCc2nnc3cc(-c4nc(C(C)C)no4)ccn23)cc1
2%[70.6 µM] | COc1cccc(N2C(=O)N[C@@H]3CCN(C(=O)c4cccs4)[C@@H]3C2=O)c1
-1% | O=C(CC1COCCN1C(=O)CCc1cccnc1)N1CCC(F)CC1 (centres undefined)
5%[70.6 µM] | CN(c1ccccc1)c1cc(=O)c2ccnc(NCC3CCOCC3)c2o1
2% | c1cc(-c2nc3c([nH]2)CNCC3)c2cccnc2c1
-6% | COc1ccc(C)cc1NC(=O)CCC[C@@H]1[C@H]2CCCN3CCC[C@@H](CN1C)[C@@H]23
-4%[70.6 µM] | O=C1Nc2ccccc2O[C@H]2C[C@@H]1N(Cc1ccc3ccccc3n1)C2
1%[70.6 µM] | CNC(=O)c1cc2cc(-c3c(C)noc3C)nc(-c3ccccc3OC)c2o1
7% | O=C(Cn1nc2c(cc1=O)CCCC2)N1CCN(Cc2ccccc2Cl)CC1
-1% | CCC(=O)N1CCC(N(C(=O)COC)C2CCOCC2)CC1
5% | COc1ccc(C(C(=O)O)N2CCN(C(=O)c3ccco3)CC2)c(OC)n1 (centres undefined)
22%[70.6 µM] | O=C1Nc2ccccc2OCC12CCN(Cc1ccccc1)CC2
-3% | CC(=O)c1ccc(NC(=O)Cn2ccn3nc4c(c3c2=O)CCCC4)cc1
4% | Cc1cccc(C(=O)N2CCC3(CC2)OCC(C(=O)NC2CC2)N3C(=O)c2cccc(C)c2)c1 (centres undefined)
-12% | O=C(c1nnn2cc(-c3ccc(F)cc3)[nH]c(=O)c12)N1CCCCC1
-4% | O=C1CCN(S(=O)(=O)c2ccccc2)CCCN(C(=O)CC2CCCCC2)CCN1
-1% | CC(C)NC(=O)[C@@H]1C[C@H](N)CN1S(=O)(=O)c1ccc2c(c1)OCCN2C
5% | Cc1cc(=O)n(CC(=O)Nc2cccc(Cl)c2C)c(N2CCOCC2)n1
-9% | COc1cccc(S(=O)(=O)N2CCOCCNC(=O)[C@@H]3CCC[C@@H]32)c1
2% | CC(=O)c1cc(CN2C[C@@H]3CN(C(C)=O)C[C@]3(C(=O)O)C2)n(C)c1
-24%[70.6 µM] | COc1ncccc1CN1CCCn2nc(C)c(-c3ccccc3C(C)C)c21
-1% | CC(C)n1cc(CN2CCC(CO)(Cc3ccccc3Cl)CC2)cn1
0% | CC(C)CNC(=O)C1COC2(CCC(C)CC2)N1C(=O)c1cccc(F)c1 (centres undefined)
0% | O=C1CCN(C(=O)C2COc3ccccc3O2)CCOCCN1 (centres undefined)
3% | COc1ccnc(Cn2c(=O)n(CC(C)C)c3ncc(C(=O)O)cc32)c1OC
-25% | COC(=O)C1=C(C)N=C2SC=C(CC(=O)N3CCCCC3C)N2C1c1cccc(OC)c1 (centres undefined)
2% | O=C1N(Cc2ccccc2)c2ccccc2C12CCN(Cc1cncs1)C2 (centres undefined)
2% | O=C(C1CCC1)N1CCCCCC1c1nnc(-c2ccccc2)o1 (centres undefined)
8% | CN1CCCC1c1nc(C2CN(S(=O)(=O)Cc3ccccc3F)C2)no1 (centres undefined)
-27% | Cc1ccc(-c2cc(C(=O)N3CCC(Cc4nncn4C(C)C)CC3)c3ccccc3n2)cc1C
3% | COc1cccc(CNC(=O)[C@@H]2C[C@@H](O)CN2C2CCN(C(=O)c3cnccn3)CC2)c1
-1% | CCN1C(=O)C2CC3(CCN(C(=O)c4c(C)noc4C)CC3)CN2C1=O (centres undefined)
-10% | CCCS(=O)(=O)N1CCC2(CC1)CN(Cc1ccc(OC)cc1)C2=O
-3% | COc1ccc(-c2nc(-c3nnn4c3COC(c3ccc(Cl)cc3)C4)no2)c(OC)c1 (centres undefined)
-1% | CN(Cc1ccc2nsnc2c1)Cc1nc(Cc2cccc(C(F)(F)F)c2)no1
1% | Cn1cc(CNC(=O)C[C@@H]2C[C@H]3O[C@H](CNCc4ccccc4C(F)(F)F)[C@@H](O)[C@H]3O2)cn1
2% | COc1ccc(OC)c(CNC(=O)C2(CCO)CC23CCOCC3)c1 (centres undefined)
3% | CC(C)N1C(=O)C2(CCCC2)C1C(=O)NC1CC1 (centres undefined)
9% | O=C(O)c1cc(-c2cncnc2)cc(S(=O)(=O)N2CCCCCC2)c1
3% | Cc1cnc(C)n1C1CCN(C(=O)CCn2cccn2)CC1
8.9µM* | CC(C)c1noc(-c2cn(C3CCN(C(=O)c4ccc(Cl)s4)C3)nn2)n1 (centres undefined)
1% | COc1ccc(C(=O)N2CCCC(CO)CCNC(=O)CC2)c(OC)n1 (centres undefined)
5% | CSc1ncccc1C(=O)N1CC[C@@](C)(O)[C@@H](O)C1
-5% | O=C(CN1CC2CC(C1)[C@H]1CCCC(=O)N1C2)NC1CC[S+](=O)([O-])C1 (some centres undefined)
-19%[70.6 µM] | CN(C)c1ncc2c(n1)C(C)(C(=O)NCc1ccc3c(c1)OCO3)CCC2 (centres undefined)
1% | Cc1ccc(C(=O)N2CCC(N3CC(OCC4CC4)C34CCCCC4)CC2)cn1 (centres undefined)

The last five entries of the part before lead into the next.
hNpr1 antagonist | mol
1% | COc1ccc(C(=O)N2CCCC(CO)CCNC(=O)CC2)c(OC)n1 (centres undefined)
5% | CSc1ncccc1C(=O)N1CC[C@@](C)(O)[C@@H](O)C1
-5% | O=C(CN1CC2CC(C1)[C@H]1CCCC(=O)N1C2)NC1CC[S+](=O)([O-])C1 (some centres undefined)
-19%[70.6 µM] | CN(C)c1ncc2c(n1)C(C)(C(=O)NCc1ccc3c(c1)OCO3)CCC2 (centres undefined)
1% | Cc1ccc(C(=O)N2CCC(N3CC(OCC4CC4)C34CCCCC4)CC2)cn1 (centres undefined)
-9% | CN(C)c1ccc(C(=O)N2CCC3(CC2)NC(=O)N(Cc2ccc(F)cc2)C3=O)cc1
0% | NC1CCC(NC(=O)C2CCCN(C3CCN(CCc4ccccc4)CC3)C2)CC1 (centres undefined)
-3%[70.6 µM] | CN1CCC2(C1)CN(CC1CC1)c1ccc(C(=O)NC3CCC3)cc12 (centres undefined)
-29% | Cc1ccc(CN2C[C@@H]3C(=O)N(Cc4ccc5c(c4)OCO5)C(=O)[C@@H]3C2)cc1
4% | COc1ccc(CCC(=O)N2C[C@@H]3CCCN4CCC[C@@H]([C@H]34)[C@H]2CCCC(=O)N2CCOCC2)cc1
3% | CCn1nccc1C(=O)N1CCC2(CC1)NCCc1c2[nH]c2ccccc12
-15% | C[C@@H]1CN(C(=O)NCC2CCCCC2)CC[C@@]1(O)C1CCOCC1
0%[70.6 µM] | CNC(=O)[C@@H](c1ccc(Cl)cc1)N1CCC[C@H]1C(=O)N1CCCC1
-1% | COCCN1C(=O)c2cccn2CC1CNS(=O)(=O)Cc1ccccc1 (centres undefined)
7% | O=C(c1cccc(OC2CN(Cc3cccc(F)c3)C2)c1)N1CCOCC1
0% | CCS(=O)(=O)Nc1ccc(C)n(CC(=O)N(C)Cc2ccccc2)c1=O
1%[70.6 µM] | Fc1ccc(-c2nnc3ccc(NCCc4ccccc4)nn23)nc1
-2%[70.6 µM] | CN(C)c1ncc2c(n1)C(C)(C(=O)Nc1ccncc1)CCC2 (centres undefined)
-10% | CN1c2cc(C(=O)Nc3ccc(F)c(Cl)c3)ccc2C(=O)N2CCCCCC21 (centres undefined)
-1% | O=C(Cn1ccn2nc(-c3ccc(F)cc3)c(CO)c2c1=O)N1CCCCCC1
-7% | COc1ccc(Cn2c3c(c(=O)n2Cc2ccccc2)CCN(C(=O)Cc2cccc(Cl)c2)C3)cc1
3% | CC(C)(O)CCc1cccc(C(=O)N2CCN(CC3CCCC3)CC2)c1
-18%[70.6 µM] | Cc1cnc(NC(=O)c2ccc3c(c2)OCCN(C2CCC2)C3)s1
-14% | Cc1oc2ccn(Cc3ccc(F)cc3)c(=O)c2c1C(=O)N1CCN(c2ccccn2)CC1
-9% | COC1CN(c2ccc(C)cc2)C12CCN(C(=O)c1ccnn1C)CC2 (centres undefined)
3% | CCN(CC)C(=O)COC1CN(Cc2ccc(O)cc2)CC(=O)N(CCc2ccccc2)C1 (centres undefined)
-18% | CC(C)C(=O)N1CCC(Cc2noc(-c3ccccc3)n2)C1 (centres undefined)
-17%[70.6 µM] | CN1Cc2c(cc(N3CCOCC3)nc2-c2cccc(C(F)(F)F)c2)C1=O
2% | COc1ccc(CNC(=O)C2(c3ccc(NC(C)=O)cc3)CCCCC2)cc1
-4% | Cc1nc(-c2c3n(c(=O)n(CC(=O)NCc4cccs4)c2=O)CCCCC3)no1
1% | COCCO[C@H]1C(=O)N(C2CCN(C(=O)c3sc(C)nc3C)CC2)[C@H]1c1ccncc1
-5% | O=C(N1CCN([S+](=O)([O-])Cc2ccccc2)CC1)N1CC2CC(C1)[C@H]1CCCC(=O)N1C2 (some centres undefined)
-14% | Cc1ccc(S(=O)(=O)Nc2ccc(C)n(CC(=O)NCc3cccc(F)c3)c2=O)cc1
2% | CS(=O)(=O)N1CCC2(CC1)NCCc1c2[nH]c2ccccc12
3% | O=C(NC1CCCN(c2cc(N3CCCC3)ncn2)C1)c1cccnc1 (centres undefined)
? | Cc1ccc(CN2CCC(Oc3cnc4c(ccn4CCN[S+](C)(=O)[O-])c3)CC2)c(F)c1
-1%[70.6 µM] | COc1cncc(NC(=O)C2=NO[C@@H]3CN(Cc4sccc4C)C[C@H]23)c1
2%[70.6 µM] | CC1=C[C@@H](CNC(=O)COCC(=O)O)[C@H](C(C)C)C[C@H]1CC(=O)N1CCCC1
-15% | CN(C)c1cccc(C(=O)NCC2CCN(c3cc(-c4ccccc4)[nH]n3)CC2)c1
-1% | O=C(NC1CCCN(c2cc(N3CCCC3)ncn2)C1)c1ccco1 (centres undefined)
13µM* | CCn1nccc1C(=O)N1CCCC(n2cc(-c3nc(-c4ccccc4)no3)nn2)C1 (centres undefined)

Individual results from the list:
hNpr1 antagonist with CN1CCC2(C1)CN(CC1CC1)c1ccc(C(=O)NC3CCC3)cc12 (centres undefined) : -3%[70.6 µM]
hNpr1 antagonist with CC(C)n1cc(CN2CCC(CO)(Cc3ccccc3Cl)CC2)cn1 : -1%
hNpr1 antagonist with COCCN1C(=O)c2cccn2CC1CNS(=O)(=O)Cc1ccccc1 (centres undefined) : -1%
hNpr1 antagonist with CCC(=O)N1CCC(N(C(=O)COC)C2CCOCC2)CC1 : -1%
hNpr1 antagonist with COc1ccc(CNC(=O)C2(c3ccc(NC(C)=O)cc3)CCCCC2)cc1 : 2%

(more compounds)
hNpr1 antagonist | mol
-2% | O=C(Nc1ccccc1F)N1CC2CC(C1)[C@H]1CCCC(=O)N1C2 (some centres undefined)
-9% | COCCCNC(=O)C1CCN(C(=O)c2ncn3c2COC(c2ccc(OC)cc2)C3)CC1 (centres undefined)
1% | CCn1nccc1C(=O)NCCC1CCN(C(=O)Nc2ccccc2F)CC1
-12% | C=CCNC(=O)c1ccc(Cn2ccn3nc4c(c3c2=O)CCCC4)cc1
-15% | O=C(Nc1ccccn1)C1CN(Cc2ccc[nH]2)CC12CCOCC2 (centres undefined)
5% | CCC(=O)N1CCc2c(sc3ncnc(Nc4ccccc4)c23)C1
5% | COc1ccc(NC(=O)Cn2ccn3nc4c(c3c2=O)CC(C)CC4)cc1Cl (centres undefined)
-19% | Cc1ccc(CN2CC(C(=O)N3CCc4c(nc5cc(-c6ccccc6)[nH]n5c4=O)C3)CC2=O)cc1 (centres undefined)
3% | Cc1sc2ccn(C)c(=O)c2c1C(=O)NCc1cccc(F)c1
-12% | CCc1nncn1C1CCN(S(=O)(=O)c2cccc(OC)c2)CC1
-2%[70.6 µM] | CN(C)c1cccc(-c2cn(C)c(=O)n3cc(CN4CCNC(=O)C4)nc23)c1
6%[70.6 µM] | O=c1cc(-c2ccccn2)oc2c(NCc3ccccc3)nccc12

In the list so far, these contain a furan ring, fused or not:
hNpr1 antagonist | mol
1%[70.6 µM] | CNC(=O)c1cc2cc(-c3c(C)noc3C)nc(-c3ccccc3OC)c2o1
5% | COc1ccc(C(C(=O)O)N2CCN(C(=O)c3ccco3)CC2)c(OC)n1 (centres undefined)
-14% | Cc1oc2ccn(Cc3ccc(F)cc3)c(=O)c2c1C(=O)N1CCN(c2ccccn2)CC1
-1% | O=C(NC1CCCN(c2cc(N3CCCC3)ncn2)C1)c1ccco1 (centres undefined)

The listing continues.
hNpr1 antagonist | mol
-12% | CC1(CCC(=O)N2CCCC2C(=O)Nc2ccccc2Oc2cccnc2)CC1 (centres undefined)
? | COc1ccc(C(=O)N[C@H]2CO[C@H]3[C@@H]2OC[C@@H]3n2nnnc2Oc2ccc3c(c2)OCO3)cc1
5% | CCc1ccc(NC(=O)Cn2cccc2-c2nc(-c3ccc4c(c3)OCO4)no2)cc1
? | O=C(Cc1cccs1)N1CCCN(c2cc(-c3ccc(Br)cc3)[nH]n2)CC1
-1% | COc1ccc(C)cc1C(=O)NC1CC(c2nnc(CN(C)C)n2C)C1 (centres undefined)
4% | Nc1ncc(C(=O)N2CCCC3(CCOC3)C2)c(-c2ccccc2)n1 (centres undefined)
2% | CC(Oc1ccccc1)C(=O)NCc1nnc2ccc(-c3ccccc3)nn12 (centres undefined)
-15% | CC(C)c1cccc(NC(=O)C2CCN(C(=O)c3ncn4c3COC(c3ccccc3)C4)CC2)c1 (centres undefined)
5% | c1ccc2oc(-c3ccnc4ncnn34)cc2c1
3%[70.6 µM] | CNC(=O)[C@@H](c1ccccc1F)N1CCC[C@H]1C(=O)N1CCOCC1
-11% | Cc1ccc2c(C(=O)NCc3ccc(F)c(Cl)c3)cc(NC(=O)C(C)C)cc2n1
-1% | O=C(Cc1cccc(Cl)c1)N1CCC([C@@H]2CNC[C@H]2CO)CC1
? | CC1(CNc2ccccc2)COc2ccc(C(=O)N3CCN(c4ccccn4)CC3)cc2N1 (centres undefined)

Some of the compounds tested (hit frequency here may not be typical).
